TRPV1 PAM – potentiators of human vanilloid receptor 1 (TRPV1). Q8NER1. hit rate 0.02% among 320,000. TRPV1-expressing cells, Fluo-8 calcium influx, capsaicin EC20 potentiation; host cell line not named in the record; control for the full effect not named in the record. AID 540277. potentiation, % at 8.33 µM; active means potentiation above 80%; inconclusive means 30% to 80%; inactive means below 30%; further: 0% is about no effect
Target sequence (Q8NER1 whole entry, looked up): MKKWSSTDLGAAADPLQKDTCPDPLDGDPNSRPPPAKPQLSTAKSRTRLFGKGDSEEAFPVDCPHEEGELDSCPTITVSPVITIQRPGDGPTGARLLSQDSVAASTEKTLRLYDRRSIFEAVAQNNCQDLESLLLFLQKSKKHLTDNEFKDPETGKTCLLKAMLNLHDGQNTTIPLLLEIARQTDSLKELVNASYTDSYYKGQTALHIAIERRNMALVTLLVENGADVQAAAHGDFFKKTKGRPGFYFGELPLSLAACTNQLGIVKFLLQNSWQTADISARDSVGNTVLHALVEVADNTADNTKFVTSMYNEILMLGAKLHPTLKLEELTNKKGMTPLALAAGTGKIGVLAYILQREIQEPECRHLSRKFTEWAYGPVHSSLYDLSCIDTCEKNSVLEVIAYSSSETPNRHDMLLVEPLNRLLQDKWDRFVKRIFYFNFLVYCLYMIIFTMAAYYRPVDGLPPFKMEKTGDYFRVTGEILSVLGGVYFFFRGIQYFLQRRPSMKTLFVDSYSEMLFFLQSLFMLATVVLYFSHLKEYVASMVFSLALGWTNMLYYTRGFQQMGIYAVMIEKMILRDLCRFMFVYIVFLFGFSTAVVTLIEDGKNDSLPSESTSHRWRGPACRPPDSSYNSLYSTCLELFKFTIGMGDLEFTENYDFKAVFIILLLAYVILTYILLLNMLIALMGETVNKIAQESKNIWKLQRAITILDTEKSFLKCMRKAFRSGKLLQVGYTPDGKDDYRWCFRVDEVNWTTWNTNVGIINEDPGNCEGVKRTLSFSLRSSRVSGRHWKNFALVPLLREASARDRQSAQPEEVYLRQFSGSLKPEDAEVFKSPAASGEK
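Cells expressing TRPV1 were dye-loaded with Fluo-8 and read kinetically: 10 s baseline, 3 min after compound (agonist portion), then 2 min after EC20 capsaicin (allosteric enhancer portion). Calcium-bound dye fluorescence at 480/520 nm.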
CtBP-E1A inh – CtBP/E1A binding inhibition; AlphaScreen GST-E1A/His-CtBP binding, 1536-well; stronger effect = lower value; control for the full effect not named in the record; hit rate 0.49% among 340,000; activity change, % (no concentration beside the values); AID 651724; in the data active means activity change below about -65%; inconclusive means about -30% to -65%; inactive means above about -30%; further: on the % scale 0 is the no-effect control and ±100 the full control effect; compound concentration not given in the record
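Steps: dispense buffer (Tris pH 8.0, NaCl 300 mM, TCEP 1 mM, BSA, Tween 20); add 5X protein mix (GST-E1A, His-CtBP, 125 nM each); pin 23 nL compound; 2 h at 37 °C, dark; add 5X beads (50 ug/mL); 1 h; read.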
Six1-Eya2 inh – Six1/Eya2 interaction inhibition | hit rate 0.56% among 360,000 | AlphaScreen GST-Six1/His-Eya2 binding, biochemical; stronger effect = lower value; control for the full effect not named in the record | Q15475+O00167 | activity change, % (test concentration not listed); in the data active = activity change below about -65%; inconclusive = about -30% to -65%; inactive = above about -30%; further: on the % scale 0 is the no-effect control and ±100 the full control effect; compound concentration not given in the record
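AlphaScreen with GST-Six1 and His-Eya2 (5X mix: 250 nM and 500 nM), glutathione donor and nickel acceptor beads; buffer 50 mM Tris pH 8.0, 300 mM NaCl, 1 mM TCEP; 1 h at 37 C in the dark.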
D2 agonist – activates the human D2 dopamine receptor; DiscoveRx PathHunter D2 beta-arrestin, luminescence, 90 min; 100% = 57 uM dopamine signal; P14416; hit rate 0.084% among 360,000; activation, % (test concentration not listed); AID 624465; in the data active = activation above about 40%; inconclusive = about 15% to 40%; inactive = below about 15%; further: compound concentration not given in the record; the text of the record calls up to 30% inactive
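DiscoveRx PathHunter D2 beta-arrestin cells (2,100/well) attached overnight, then compound-stimulated 90 min at 37 C in HBSS/10 mM HEPES/0.1% Tween-20 buffer; beta-galactosidase complementation read by luminescence after 1 h at ambient temperature. Dopamine 57 uM final (EC100) as control.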
Sfp PPTase inh – blocks B. subtilis Sfp PPTase activity | hit rate 3.5% among 310,000 | Potency, µM, inactives show max response, negative = inhibition, usual class: inhibitors | Biochemical Sfp PPTase activity, qHTS | Q9F4F7; active means well fitted inhibition curve with a large enough effect; inconclusive means small, poorly fitted or top-dose-only effect, or another doubt; inactive means no such curve, though single readings can be large or run the other way;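 further: the enzyme is Sfp with the accession as filed and its product quenches rhodamine fluorescence; potency means the concentration at half of the fitted maximal effect; 0% = enzyme reaction without inhibitor and -100% = no enzyme wells; top concentration of the series not given in the record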
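Sfp 15 nM + cpd, 15 min RT; start w/ rhodamine-CoA 5 uM, BHQ-2-YbbR 12.5 uM (final); 50 mM Hepes pH 7.6, 10 mM MgCl2, 0.01% NP-40, 0.01% BSA; read 525/598 nm at 0 and 30 min.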
D2 potentiator – positive allosteric modulators of human D2 dopamine receptor. DiscoveRx D2 beta-arrestin cells, luminescence, 90 min; 100% = 57 uM dopamine signal. potentiation, % (test concentration not listed). P14416. hit rate 0.23% among 360,000; active = potentiation of 50% or more; inconclusive = 30% to 50%; inactive = 30% or less;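 further: compound concentration not given in the record; tested on top of an EC20 dose of dopamine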
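PathHunter D2 cells, attached overnight at 37 deg C, received compound in DMSO plus dopamine at EC20 (50 nM final) for 90 min at 37 deg C. Beta-arrestin recruitment was read as luminescence after 1 h with detection reagent at ambient temperature.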
PINK1 expr mod – changes PINK1 expression | Potency, µM (highest dose often 76.6 µM), for inactives: top-dose activation (PINK1 increase), usual class: activators | hit rate 0.2% among 410,000 | PINK1 immunofluorescence, high-content cytometry, 24 h; active = well fitted activation curve with a large enough effect; inconclusive = small, poorly fitted or top-dose-only effect; inactive = flat fitted curve, though single readings scatter; cell line not stated here;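 further: potency means the concentration at half of the fitted maximal effect; % of control where 0% means no effect; nearly all actives have a fitted effect of over 65% in size; a mitochondrial uncoupler was the plate control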
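Stable cell line, 250 cells/well, 12 h attachment; compounds pinned at 5 concentrations, 24 h; CCCP control. Fixed with nuclear dye, primary antibodies 12 h at 10 degrees C, secondary plus cell stain; laser-scanning cytometer read.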
* hit, by the source's call; ? = inconclusive; . = no result given; [ ] = another dose, or the depositor's remark. This is a random part of the collection. Share with any hit: about 3.7%.

SMILES	TRPV1 PAM	CtBP-E1A inh	Six1-Eya2 inh	D2 agonist	Sfp PPTase inh	D2 potentiator	PINK1 expr mod
Cc1csc2c(=O)[nH]cnc12	20.1	.	9.7	-0.1	13.4%	-4.0	0.1%
O=C(CCN=C1NS(=O)(=O)c2ccccc21)OCc1ccccc1	-30.9	12.2	-3.7	-4.1	.	-19.8	1.9%
COc1ccc(CNC(=O)COC(=O)CCOc2ccccc2)cc1	-17.4	-1.7	2.2	-3.1	13.2%	1.4	1.8%
CCOc1ccccc1OCC(=O)OCC(=O)c1c(N)n(CC(C)C)c(=O)n(C)c1=O	14.2	.	3.6	1.7	.	-0.1	2.3%
CC(C)NC(=S)N/N=C1\CCCCc2ccccc21	-11.7	.	-21.0	-0.2	-1.0%	-8.4	1.5%
O=C(CCNS(=O)(=O)c1ccc(Cl)cc1)NCc1ccccn1	8.3	-15.3	-16.2	-2.3	-8.4%	-2.1	3.0%[38.3 µM]
Cc1ccc(NC(=O)CSc2nnc(-c3ccccn3)n2C)cc1	?	-4.7	-1.9	-1.8	13.8%	-5.8	3.0%
CSc1nc2ccc(S(N)(=O)=O)cc2s1	-1.1	5.2	8.3	-1.4	11.2%	-17.1	-0.5%
C=CC[C@@H](CC(=O)NCCO)C(=O)N[C@H](COC(=O)[C@@H](CC=C)Cc1ccc(F)cc1)Cc1c[nH]c2ccccc12	.	-5.8	-11.6	2.5	.	.	8.3%
COc1cccc(C(=O)OCC(=O)NC23CC4CC(CC(C4)C2)C3)c1	.	14.2	3.0	-3.5	.	-9.0	-1.1%
O=C(NCC(c1cccnc1)N1CCN(c2ccc(F)cc2)CC1)c1ccccc1 (stereo unspecified)	-0.9	1.8	-1.9	0.0	9.7%	-12.1	-0.5%
C/C=C/C(=O)Nc1cccc(C2=NOC3(C2)C[C@@H](C(N)=O)N(C(=O)/C(C)=C/C)C3)c1 (stereo partly specified)	-9.8	2.0	5.7	-0.9	1.4%	-7.4	-0.3%
CCOc1ccc(-n2c(SCc3nc(-c4cccs4)no3)nnc2-c2ccncc2)cc1	-4.3	10.2	-6.1	-1.4	-3.8%	3.1	-3.7%[38.3 µM]
Cc1cnc(C(=O)OCC(=O)Nc2oc(-c3ccccc3)c(-c3ccccc3)c2C#N)cn1	0.4	-6.3	-3.7	-2.8	16.9%	7.8	5.8%
CCOc1ccc(NS(=O)(=O)c2c(C)nc3sccn3c2=O)cc1	-8.3	4.1	1.3	-8.0	13.6%	0.8	-0.2%
COc1ccc(/C=C2\CC/C(=C\c3ccc(OC)cc3OC)C2=O)c(OC)c1	?	.	8.6	-3.8	9.4%	-8.7	10.0%
Cc1onc(-c2ccccc2Cl)c1C(=O)Nc1nnc(C(C)C)s1	12.5	2.3	0.9	-3.1	22.9%	-2.7	0.9%
COc1ccc(NC(=O)Nc2ccc3c(c2)N(C)C(=O)CS3)cc1OC	2.6	-10.2	-7.8	3.0	?	-2.6	2.0%
COc1ccc(NC(=O)CCC(=O)N2CCCC2)c([N+](=O)[O-])c1	10.2	4.5	1.1	1.3	14.7%	-7.1	-0.9%
CC1(C(=O)NS(=O)(=O)c2ccc(C#N)cc2)CCN1C(=O)C1(c2ccc(Cl)cc2)CC1 (stereo unspecified)	.	5.4	-3.7	-5.7	.	-5.8	-0.6%
CC(=O)Nc1nnc(SCc2cccc(F)c2)s1	-10.9	1.7	-2.7	-0.2	12.7%	0.1	2.3%
CC(C)NC(=O)COC(=O)C1CSC2(c3ccc(Br)cc3)CCC(=O)N12 (stereo unspecified)	6.9	0.0	2.8	-3.2	25.5%	-15.1	-0.8%
O=[N+]([O-])c1ccccc1S(=O)(=O)NCCC1=CCCCC1	-15.4	5.8	-2.1	1.7	6.2%	-2.3	1.8%
CN(CC(=O)Nc1ccc(F)cc1)C(=O)COc1ccccc1Cc1ccccc1	8.1	-13.0	1.7	-2.4	.	-20.0	7.9%
CN1/C(=C\C(=O)COC(=O)CNC(=O)c2ccc3ccccc3c2)C(C)(C)c2ccccc21	22.9	2.8	0.4	-9.7	7.2%	-6.4	-1.4%
CCCCCC(NC(=O)C1CCN(C(=O)[C@@H](NS(=O)(=O)c2ccc(C)cc2)C(C)C)CC1)C(=O)O (stereo partly specified)	?	1.3	5.1	-2.5	13.1%	-18.7	2.3%
N=c1c(C(=O)NC2CCCC2)cc2c(=O)n3ccccc3nc2n1CCN1CCOCC1	-2.5	24.0	20.4	-2.7	16.5%	-17.9	-0.9%
O=c1c2cnn(-c3ccccc3)c2nc(-c2cccs2)n1-c1ccc(Br)cc1	-0.7	3.0	4.0	-5.1	-1.8%	-11.7	14.0%
CSc1ccccc1NC(=O)c1ccc(Cl)s1	3.2	12.8	8.7	-0.7	-6.9%	-3.9	6.4%[38.3 µM]
O=C(c1ccc(Cl)c([N+](=O)[O-])c1)N1CCCc2ccccc21	-15.5	.	-12.5	5.7	10.6%	-1.2	-1.2%
O=C(Oc1cccc(NC(=O)c2ccccc2Cl)c1)c1ccc([N+](=O)[O-])cc1	?	-2.1	-22.8	3.0	-2.4%	?	-0.6%
c1ccc(Cc2noc(CN3CCCC(CN4CCOCC4)C3)n2)cc1 (stereo unspecified)	-10.9	-15.4	-5.8	-4.9	20.8%	-7.7	-0.1%
CCCC1=Nc2cc(C(=O)NCCN3CCOCC3)ccc2Sc2ccccc21	-13.7	-4.9	-2.1	-3.0	-5.7%	-15.4	0.3%
COc1ccc(Cl)cc1C(=O)NNC(=O)c1cc2ccccc2o1	.	.	-0.6	8.7	.	6.2	7.2%
Cc1ccc(C)c(S(=O)(=O)NC(CCC(N)=O)C(=O)O)c1 (stereo unspecified)	-4.1	7.0	11.1	-3.1	24.6%	10.4	-1.3%
O=S(=O)(Nc1ncccn1)c1ccc(Cl)cc1	4.0	1.5	0.3	-4.7	-15.0%	-2.4	0.6%
COc1ccc2c(c1)CC/C(=C/c1ccccn1)C2=O	-19.7	-6.2	7.7	2.6	-0.9%	-5.1	-3.2%
CC1(C(=O)NCc2ccccc2)Cc2c(-c3ccc(C(N)=O)cc3)ccnc2O1 (stereo unspecified)	.	0.4	3.5	-5.0	.	-6.7	4.3%
Cn1c(=O)oc2cc(S(=O)(=O)NCCC(=O)NCc3ccccc3Cl)ccc21	-3.5	-16.3	5.2	-2.5	18.8%	-11.0	-0.3%
O=C(CN1C(=O)NC2(CCCC2)C1=O)NCc1ccccc1	.	1.4	-2.3	-3.1	.	-1.9	1.0%
Cn1c(N)c(C(=O)COC(=O)[C@H](Cc2ccccc2)N2C(=O)c3ccccc3C2=O)c(=O)n(C)c1=O	12.7	-0.9	-16.8	-3.0	-5.8%	8.2	11.3%
CN(C(=O)CSc1nnn(C)n1)c1ccccc1	-4.6	5.9	3.4	-0.2	13.5%	8.1	0.9%
COc1ccc(CN(C(=O)c2cnccn2)C(C(=O)NC(C)(C)C)c2cc(OC)c(OC)c(OC)c2)cc1 (stereo unspecified)	10.7	-1.1	1.6	-1.8	6.2%	24.4	-1.5%
CCOc1ccccc1-c1cc(C(=O)Nc2ccc(C(=O)O)cc2)c2ccccc2n1	0.0	6.8	3.9	-3.9	-12.0%	-8.4	6.4%
COc1ccc(NC(=O)c2nc[nH]c2C(=O)N[C@@H](C)C(=O)OC(C)(C)C)cc1	19.5	-21.3	-6.7	-3.0	7.8%	-6.0	1.5%
CN(CC(=O)Nc1ccccc1Cl)C(=O)C1CCN(C(=O)c2ccc(F)cc2)CC1	-11.9	.	-21.7	-1.7	.	-2.3	-0.7%
NS(=O)(=O)c1cccc(NC(=O)c2cccnc2Oc2ccccc2)c1	7.0	-14.5	-19.5	1.3	12.4%	-4.2	-1.8%
O=C(Cc1ccccc1)Nc1nc(-c2ccc(F)c(F)c2)cs1	-17.2	-6.7	-5.1	1.4	7.4%	-1.6	10.7%
CCCCCCC(O)(c1ccc(OC)cc1)C(CN1CCOCC1)c1ccccc1 (stereo unspecified)	-13.9	0.0	-10.3	-3.4	-12.9%	-15.6	10.6%
CCOc1ccc(N(C(=O)c2ccc3c(c2)OCO3)C2C=CS(=O)(=O)C2)cc1 (stereo unspecified)	-2.9	0.2	-0.7	-0.5	18.2%	-2.8	-1.7%
O=C(CN1CCN(c2nc(-c3ccc(F)cc3)cs2)CC1)Nc1ccc2c(c1)OCO2	-3.8	-6.9	-22.4	2.8	2.3%	6.4	1.2%
O=C(Nc1ccc(C(F)(F)F)cc1)c1ccccc1-n1cnnn1	?	-2.6	2.0	-0.8	.	-2.3	1.0%

A draw from above in order of molecular weight, descending.
SMILES	TRPV1 PAM	CtBP-E1A inh	Six1-Eya2 inh	D2 agonist	Sfp PPTase inh	D2 potentiator	PINK1 expr mod
COc1ccc(CN(C(=O)c2cnccn2)C(C(=O)NC(C)(C)C)c2cc(OC)c(OC)c(OC)c2)cc1 (stereo unspecified)	10.7	-1.1	1.6	-1.8	6.2%	24.4	-1.5%
Cn1c(N)c(C(=O)COC(=O)[C@H](Cc2ccccc2)N2C(=O)c3ccccc3C2=O)c(=O)n(C)c1=O	12.7	-0.9	-16.8	-3.0	-5.8%	8.2	11.3%
O=C(CN1CCN(c2nc(-c3ccc(F)cc3)cs2)CC1)Nc1ccc2c(c1)OCO2	-3.8	-6.9	-22.4	2.8	2.3%	6.4	1.2%
CN(CC(=O)Nc1ccccc1Cl)C(=O)C1CCN(C(=O)c2ccc(F)cc2)CC1	-11.9	.	-21.7	-1.7	.	-2.3	-0.7%
CCCCCCC(O)(c1ccc(OC)cc1)C(CN1CCOCC1)c1ccccc1 (stereo unspecified)	-13.9	0.0	-10.3	-3.4	-12.9%	-15.6	10.6%
CCOc1ccc(N(C(=O)c2ccc3c(c2)OCO3)C2C=CS(=O)(=O)C2)cc1 (stereo unspecified)	-2.9	0.2	-0.7	-0.5	18.2%	-2.8	-1.7%
NS(=O)(=O)c1cccc(NC(=O)c2cccnc2Oc2ccccc2)c1	7.0	-14.5	-19.5	1.3	12.4%	-4.2	-1.8%
O=C(Nc1ccc(C(F)(F)F)cc1)c1ccccc1-n1cnnn1	?	-2.6	2.0	-0.8	.	-2.3	1.0%
O=C(Cc1ccccc1)Nc1nc(-c2ccc(F)c(F)c2)cs1	-17.2	-6.7	-5.1	1.4	7.4%	-1.6	10.7%

Bioassay records from PubChem BioAssay.
